High-throughput results: PubChem BioAssay, Broad Institute
A1 apoptosis 2 – A1 inhibitors via caspase activation, primary screen, cell-based, luminescence, HTS, two replicates; MEF A1-2A-BIM cells, caspase-Glo luminescence, 3 h; percent of clofoctol response, DMSO zero; 24,000 tested, under 10 active; caspase activation, % (no concentration beside the values); in the data active = caspase activation above about 5.9%;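 note: wells of about 30 µL received 50 nL stock; the first replicate is given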
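Material: mouse embryonic fibroblasts co-expressing A1 and BIM (A1-2A-BIM), primed for A1 dependence / Quantity: 2500 cells/well / Buffer or medium: RPMI-1640 growth medium with 10% FBS / Doses: 50 nL compound per well, pinned / Schedule: 3 h compound exposure at 37 °C / Signal: Caspase-Glo luminescence (DEVD substrate) / Measure: Caspase-3/7 activation, seen as rise in luminescence signal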
Active calls of the source: *. Some of the compounds tested. The share of hits here may be higher or lower than overall.

Start of the listing, in advance, 2 compounds:
SMILES	A1 apoptosis 2
C[C@@H]1CN([C@H](C)CO)C(=O)c2cc(NC(=O)CCN3CCOCC3)ccc2O[C@H]1CN(C)C(=O)Nc1ccc(F)cc1	0.4
CCN(CC)c1ccc(/C=N/NC(=O)c2cccc(C(=O)NO)c2)c(O)c1	-3.2

The whole of this part, from the first entry:
SMILES	A1 apoptosis 2
C[C@@H]1CN([C@H](C)CO)C(=O)c2cc(NC(=O)CCN3CCOCC3)ccc2O[C@H]1CN(C)C(=O)Nc1ccc(F)cc1	0.4
CCN(CC)c1ccc(/C=N/NC(=O)c2cccc(C(=O)NO)c2)c(O)c1	-3.2
C[C@H]1CN([C@@H](C)CO)C(=O)Cc2cc(NC(=O)Cc3cn(C)c4ccccc34)ccc2O[C@@H]1CN(C)C(=O)NC1CCCCC1	0.5
Cc1ccc(S(=O)(=O)N(C)C[C@H]2Oc3c(NS(C)(=O)=O)cccc3C(=O)N([C@H](C)CO)C[C@H]2C)cc1	-0.9
Cc1cc(C(=O)Nc2cccc3c2O[C@H](CN(C)Cc2ccc(C(F)(F)F)cc2)[C@@H](C)CN([C@H](C)CO)C3=O)n(C)n1	0.6
Cc1noc(C)c1S(=O)(=O)N(C)C[C@@H]1Oc2ccc(NS(=O)(=O)c3cccs3)cc2CC(=O)N([C@H](C)CO)C[C@@H]1C	-1.5
Cc1noc(C)c1S(=O)(=O)N(C)C[C@H]1OCCCC[C@H](C)Oc2ccc(NC(=O)CCCN(C)C)cc2C(=O)N([C@H](C)CO)C[C@H]1C	1.1
COc1ccc(NC(=O)Nc2ccc3c(c2)C(=O)N([C@@H](C)CO)C[C@H](C)[C@@H](CN(C)Cc2ccncc2)OCCCC[C@H](C)O3)cc1	0.2
Cc1ccc(S(=O)(=O)Nc2ccc3c(c2)C(=O)N([C@@H](C)CO)C[C@@H](C)[C@@H](CN(C)C(=O)CCC(F)(F)F)OCCCC[C@@H](C)O3)cc1	-0.3
C[C@@H]1CCCCO[C@@H](CN(C)S(=O)(=O)c2ccc(Cl)cc2)[C@H](C)CN([C@@H](C)CO)C(=O)c2cc(NC(=O)c3ccccc3)ccc2O1	-0.5
COc1ccc(NC(=O)Nc2ccc3c(c2)C(=O)N([C@@H](C)CO)C[C@@H](C)[C@@H](CN(C)S(=O)(=O)c2cccs2)O3)cc1	-0.6
Cc1ccc(S(=O)(=O)N(C)C[C@H]2OCCCC[C@H](C)Oc3ccc(NS(=O)(=O)c4cn(C)cn4)cc3C(=O)N([C@H](C)CO)C[C@H]2C)cc1	0.8
C[C@@H]1CN([C@H](C)CO)C(=O)c2cc(NC(=O)Nc3cccc4ccccc34)ccc2O[C@@H](C)CCCCO[C@H]1CN(C)Cc1ccc2c(c1)OCO2	2.8
C[C@@H]1CN([C@@H](C)CO)C(=O)c2cc(NC(=O)Nc3ccc(C(F)(F)F)cc3)ccc2O[C@H]1CN(C)S(=O)(=O)c1ccccc1	0.9
CC(C)NC(=O)Nc1ccc2c(c1)C(=O)N([C@H](C)CO)C[C@@H](C)[C@H](CN(C)C(=O)Nc1ccc3c(c1)OCO3)OCCCC[C@@H](C)O2	0.4
C[C@H]1CN([C@@H](C)CO)C(=O)c2cccc(NS(C)(=O)=O)c2O[C@@H]1CN(C)C(=O)NC1CCCCC1	-1.9
C[C@H](CO)N1C[C@H](C)[C@@H](CN(C)Cc2ccncc2)Oc2ccc(N(C)C)cc2CC1=O	-2.0
CC(C)NC(=O)Nc1ccc2c(c1)CC(=O)N([C@@H](C)CO)C[C@@H](C)[C@H](CN(C)CC1CCCCC1)O2	0.2
C[C@@H]1CN([C@@H](C)CO)C(=O)c2cc(NC(=O)Cc3cn(C)c4ccccc34)ccc2O[C@@H]1CN(C)S(=O)(=O)c1cccs1	1.1
Cc1noc(C)c1S(=O)(=O)N(C)C[C@@H]1Oc2ccc(NS(=O)(=O)c3ccc(Cl)cc3)cc2C(=O)N([C@@H](C)CO)C[C@@H]1C	-0.8
C[C@H]1CN([C@@H](C)CO)C(=O)Cc2cc(N(C)C)ccc2O[C@H]1CN(C)S(C)(=O)=O	-2.2
Cc1ccc(S(=O)(=O)N(C)C[C@H]2Oc3ccc(NC(=O)Cc4ccccc4)cc3C(=O)N([C@@H](C)CO)C[C@H]2C)cc1	-0.5
Cc1ccc(S(=O)(=O)N(C)C[C@@H]2OCCCC[C@@H](C)Oc3ccc(NC(=O)Nc4ccccc4)cc3C(=O)N([C@H](C)CO)C[C@H]2C)cc1	0.2
C[C@@H]1CN([C@H](C)CO)C(=O)Cc2cc(NC(=O)C3CC3)ccc2O[C@@H]1CN(C)CC1CCCCC1	-1.1
CN(C)c1ccc(/C=N/NC(=O)CCCCCCC(=O)Nc2ccccc2O)cc1	-0.6
C[C@@H]1CN([C@@H](C)CO)C(=O)c2cc(NS(=O)(=O)c3ccc(Cl)cc3)ccc2O[C@@H]1CN(C)S(=O)(=O)c1ccc(F)cc1	-0.9
C[C@@H]1CCCCO[C@H](CN(C)S(=O)(=O)c2ccc(F)cc2)[C@@H](C)CN([C@H](C)CO)C(=O)c2cc(NC(=O)CCCN(C)C)ccc2O1	-1.6
Cc1ccc(S(=O)(=O)N(C)C[C@@H]2Oc3c(NC(=O)NC(C)C)cccc3C(=O)N([C@H](C)CO)C[C@@H]2C)cc1	0.5
COc1ccc(CN(C)C[C@H]2Oc3ccc(NS(=O)(=O)c4ccc(Cl)cc4)cc3C(=O)N([C@H](C)CO)C[C@@H]2C)cc1	-0.7
C[C@@H]1CN([C@@H](C)CO)C(=O)c2cc(NS(=O)(=O)c3ccc(F)cc3)ccc2O[C@@H]1CN(C)C(=O)Nc1ccc(F)cc1	-0.2
C[C@H](CO)N1C[C@H](C)[C@@H](CN(C)Cc2ccc(C(=O)O)cc2)OCCCC[C@H](C)Oc2ccc(NS(=O)(=O)c3cccs3)cc2C1=O	-0.6
Cc1cc(C(=O)Nc2cccc3c2O[C@H](CN(C)S(=O)(=O)c2ccc(F)cc2)[C@H](C)CN([C@H](C)CO)C3=O)n(C)n1	0.5
OCC1CC(c2ccccc2)=NO1 (stereo not given)	-0.5
COc1ccc(S(=O)(=O)Nc2cccc3c2O[C@@H](CN(C)Cc2ccc(C(F)(F)F)cc2)[C@@H](C)CN([C@@H](C)CO)C3=O)cc1	-0.5
C[C@H]1CN([C@@H](C)CO)C(=O)c2cc(N(C)C)ccc2O[C@@H]1CN(C)Cc1ccc(Cl)c(Cl)c1	-1.7
C[C@@H]1CCCCO[C@H](CN(C)C(=O)NC2CCCCC2)[C@@H](C)CN([C@H](C)CO)C(=O)c2cc(NC(=O)Nc3cccc4ccccc34)ccc2O1	-0.5
CNC[C@@H]1OCCCC[C@@H](C)Oc2ccc(NS(=O)(=O)c3ccc(F)cc3)cc2C(=O)N([C@@H](C)CO)C[C@@H]1C	-0.3
C[C@@H]1CN([C@@H](C)CO)C(=O)c2cc(NS(=O)(=O)c3cccs3)ccc2O[C@@H](C)CCCCO[C@@H]1CN(C)CC1CCCCC1	-1.7
C[C@@H]1CN([C@H](C)CO)C(=O)c2cc(NC(=O)CCC(F)(F)F)ccc2O[C@@H](C)CCCCO[C@H]1CN(C)C(=O)Nc1ccc2c(c1)OCO2	0.3
C[C@@H]1CN([C@@H](C)CO)C(=O)CCCn2nncc2CO[C@@H]1CN(C)S(=O)(=O)c1ccccc1C#N	-0.3

Some of the entries so far, field by field.
C[C@H](CO)N1C[C@H](C)[C@@H](CN(C)Cc2ccc(C(=O)O)cc2)OCCCC[C@H](C)Oc2ccc(NS(=O)(=O)c3cccs3)cc2C1=O
  A1 apoptosis 2 = -0.6
Cc1cc(C(=O)Nc2cccc3c2O[C@H](CN(C)S(=O)(=O)c2ccc(F)cc2)[C@H](C)CN([C@H](C)CO)C3=O)n(C)n1
  A1 apoptosis 2 = 0.5
OCC1CC(c2ccccc2)=NO1 (stereo not given)
  A1 apoptosis 2 = -0.5
COc1ccc(S(=O)(=O)Nc2cccc3c2O[C@@H](CN(C)Cc2ccc(C(F)(F)F)cc2)[C@@H](C)CN([C@@H](C)CO)C3=O)cc1
  A1 apoptosis 2 = -0.5

Continuation.
SMILES	A1 apoptosis 2
Cc1noc(C)c1S(=O)(=O)Nc1ccc2c(c1)C(=O)N([C@H](C)CO)C[C@H](C)[C@H](CN(C)S(C)(=O)=O)OCCCC[C@H](C)O2	-0.3
C[C@H]1CN([C@@H](C)CO)C(=O)c2cc(NS(=O)(=O)c3ccc(F)cc3)ccc2O[C@@H]1CN(C)S(=O)(=O)c1ccc(F)cc1	0.2
C[C@@H]1CN([C@H](C)CO)C(=O)c2cccc(NS(=O)(=O)c3ccccc3)c2O[C@H]1CN(C)Cc1ccc(C(=O)O)cc1	-0.5
C[C@H](CO)N1C[C@H](C)[C@@H](CN(C)C(=O)Nc2ccccc2C(F)(F)F)OCc2cn(nn2)CCCC1=O	-0.1
C[C@@H]1CN([C@H](C)CO)C(=O)c2cc(NC(=O)C3CC3)ccc2O[C@@H]1CN(C)S(=O)(=O)c1ccccc1	-0.7
C[C@H]1CN([C@@H](C)CO)C(=O)c2cccc(NS(=O)(=O)c3cn(C)cn3)c2O[C@@H]1CN(C)S(=O)(=O)c1cn(C)cn1	1.3
C[C@H](CO)N1C[C@H](C)[C@@H](CN(C)C(=O)c2ccncc2)OCCCC[C@H](C)Oc2ccc(NS(=O)(=O)c3cn(C)cn3)cc2C1=O	0.5
Cc1noc(C)c1S(=O)(=O)Nc1ccc2c(c1)CC(=O)N([C@H](C)CO)C[C@H](C)[C@@H](CN(C)C(=O)Nc1ccccc1)O2	-0.5
CC(C)NC(=O)Nc1ccc2c(c1)C(=O)N([C@@H](C)CO)C[C@H](C)[C@@H](CN(C)Cc1ccncc1)OCCCC[C@H](C)O2	-0.3
C[C@H](CO)N1C[C@H](C)[C@H](CN(C)C(=O)Nc2ccc(C(F)(F)F)cc2)Oc2ccc(NC(=O)Nc3ccc(F)cc3)cc2C1=O	-1.7
C[C@H](CO)N1C[C@H](C)[C@@H](CN(C)S(=O)(=O)c2cccs2)Oc2c(NC(=O)Nc3ccccc3)cccc2C1=O	-1.2
Cc1ccc(S(=O)(=O)N(C)C[C@@H]2Oc3ccc(NC(=O)Cc4cn(C)c5ccccc45)cc3CC(=O)N([C@H](C)CO)C[C@@H]2C)cc1	-0.2
C[C@H]1CCCCO[C@H](CN(C)Cc2ccncc2)[C@@H](C)CN([C@@H](C)CO)C(=O)c2cc(NC(=O)Nc3ccc4c(c3)OCO4)ccc2O1	0.1
C[C@@H]1CN([C@@H](C)CO)C(=O)c2cccc(NC(=O)C3CCOCC3)c2O[C@H]1CN(C)CC1CC1	0.1
C[C@@H]1CN([C@@H](C)CO)C(=O)c2cc(NC(=O)Nc3ccc4c(c3)OCO4)ccc2O[C@@H](C)CCCCO[C@@H]1CN(C)Cc1ccc(C(=O)O)cc1	-1.5
C[C@@H]1CN([C@@H](C)CO)C(=O)c2cccc(N(C)C)c2O[C@H]1CN(C)C(=O)Nc1ccc2c(c1)OCO2	0.7
C[C@H](CO)N1C[C@H](C)[C@@H](CN(C)S(=O)(=O)c2cccs2)Oc2ccc(NC(=O)NC3CCCCC3)cc2C1=O	1.8
CNC[C@H]1OCCCC[C@@H](C)Oc2ccc(NC(=O)Nc3ccccc3)cc2C(=O)N([C@@H](C)CO)C[C@H]1C	0.3
C[C@@H]1CN([C@@H](C)CO)C(=O)c2cc(NC(=O)Nc3ccc4c(c3)OCO4)ccc2O[C@H]1CN(C)CC1CCCCC1	-1.5
O=C(O)CCCCCCC(=O)N/N=C/c1ccc(CO)o1	1.3
C[C@@H]1CN([C@@H](C)CO)C(=O)Cc2cc(NC(=O)Cc3cn(C)c4ccccc34)ccc2O[C@H]1CN(C)S(=O)(=O)c1cccs1	1.6
C[C@H]1CN([C@@H](C)CO)C(=O)CCCn2nncc2CO[C@@H]1CN(C)C(=O)Nc1ccc(F)cc1	0.3
Cc1noc(C)c1NC(=O)N(C)C[C@H]1Oc2ccc(NC(=O)c3ccncc3)cc2CC(=O)N([C@H](C)CO)C[C@H]1C	0.8
C[C@@H]1CCCCO[C@H](CN(C)CC2CCCCC2)[C@@H](C)CN([C@H](C)CO)C(=O)c2cc(NS(=O)(=O)c3cccs3)ccc2O1	-0.4
C[C@H](CO)N1C[C@H](C)[C@H](CN(C)Cc2ccncc2)Oc2ccc(NS(=O)(=O)c3ccc(F)cc3)cc2C1=O	-0.8
C[C@@H]1CCCCO[C@H](CN(C)Cc2ccc(C(F)(F)F)cc2)[C@@H](C)CN([C@@H](C)CO)C(=O)c2cc(NS(C)(=O)=O)ccc2O1	-0.9
C[C@@H]1CCCCO[C@@H](CN(C)C(=O)C2CCCCC2)[C@H](C)CN([C@@H](C)CO)C(=O)c2cc(NC(=O)Nc3ccc(F)cc3)ccc2O1	0.9
CC(C)NC(=O)Nc1ccc2c(c1)C(=O)N([C@@H](C)CO)C[C@@H](C)[C@@H](CN(C)C(=O)CCCN(C)C)OCCCC[C@@H](C)O2	-1.1
C[C@@H]1CN([C@H](C)CO)C(=O)c2cc(N(C)C)ccc2O[C@@H]1CN(C)S(=O)(=O)c1ccc(F)cc1	-0.6
C[C@@H]1CN([C@@H](C)CO)C(=O)c2cc(NC(=O)Nc3ccc(C(F)(F)F)cc3)ccc2O[C@@H]1CN(C)C(=O)Nc1ccccc1	0.3
Cc1cccc(S(=O)(=O)N(C)C[C@@H]2OCc3cnnn3CCCC(=O)N([C@@H](C)CO)C[C@H]2C)c1	-0.8
